Bioassay records (PubChem)
Bead autofluor – flagged as autofluorescent in microsphere protease counterscreen. compound autofluorescence counterscreen, microsphere flow cytometry; stronger effect = higher value. fluorescence intensity (no concentration beside the values). 3.1% of 360,000 active. AID 624483;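 active = at least 3 SD above the mean of all compounds, about 16000 in these data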;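 note: 100 nL of 1 mM stock went into each well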
* hit, by the source's call. An excerpt; count on the stated rates, not on these rows.

Compound | Bead autofluor
C[C@@H](c1ccccc1)N1C[C@H](COCc2ccccc2)Oc2cc(N3CC[C@H](N(C)C)C3)ccc2S1(=O)=O | 5967
CSc1ccc(-c2cc3c(c4c2ccn4C)C2CCC3O2)cc1 (centres undefined) | 6571
COc1ccccc1N1CCN(CCS(=O)(=O)c2cc(Cl)ccc2Cl)CC1 | 3814
CNC(=O)C[C@H]1C(=O)N(Cc2ccccc2)C[C@@H]1CSC | 3051
CC1(C(=O)Nc2ccc3c(c2)OCO3)CCN1C(=O)C1CCCCC1 (centres undefined) | 3745
CC(=O)NC(c1cccc(F)c1)c1nc(-c2ccoc2)cs1 (centres undefined) | 3767
Clc1ccc(-c2cc3nc(NCc4cccc(Cl)c4)ccn3n2)cc1 | 3563
COCCN(C(=O)COC(=O)c1ccc(Br)o1)c1c(N)n(Cc2ccccc2)c(=O)[nH]c1=O | 2865
Cc1ccc(S(=O)(=O)N2C[C@H]3C(=O)C[C@@H](c4ccccc4C)N(S(=O)(=O)c4ccc(C)cc4)[C@H]3C[C@H]2c2ccccc2)cc1 | 4899
COc1cncc(-c2cnc3sc(NCCc4ccccn4)nn23)c1 | 3334
CC1(Cc2cccc(F)c2)C(=O)Nc2ccc(OC(F)(F)F)cc21 (centres undefined) | 3744
CCOC(=O)C1=CCC2C(=O)N(Cc3ccccc3)C(=O)C12 (centres undefined) | 4912
O=C(NC(c1ccc(Cl)cc1)c1cnccn1)C1CCN(Cc2ccc(Oc3ccccc3)cc2)CC1 (centres undefined) | 3856
C[C@@H]1CN([C@@H](C)CO)C(=O)CCCn2nncc2CO[C@@H]1CN(C)C(=O)Nc1ccc(C(F)(F)F)cc1 | 3817
OCCCNc1ncnc2c1ncn2[C@H]1CN(Cc2ccco2)C[C@@H](CO)O1 | 2872
COc1cccc(C(NC(C)=O)c2nc(-c3cccc(C(C)C)c3)cs2)c1 (centres undefined) | 3809
CCCCCCCCC(c1nc2cc(C)c(C)cc2[nH]1)n1c(=O)c(-c2ccccc2Br)nc2ccccc21 (centres undefined) | 4821
CNS(=O)(=O)c1ccc(CNC[C@H]2O[C@@H](n3ccc(N)nc3=O)[C@H](O)[C@@H]2O)cc1 | 3928
CCc1nc2c(OCc3ccc(OC(F)F)cc3)cccn2c1N(C)C(=O)c1ccc(OC)cc1 | 4174
CCOC(=O)C1(C)CCCN(C(=O)c2ccc(-c3ccccc3)cc2)C1 (centres undefined) | 3419
C/C(COc1ccccc1)=N\NC(=O)c1nnn(-c2nonc2N)c1-c1ccc(C)cc1 | 2830
CC1=C(C(=O)N(C(C)C)C(C)C)CC(CC(=O)NCc2cccs2)C(=O)N1CCCN1CCCC1=O (centres undefined) | 4292
COc1cc(-c2cc(NC=O)c3ncc(-c4cccc(C(F)(F)F)c4)n3c2)cc(OC)c1OC | 3105
CCCC1NC(=O)c2cccnc2-n2c1nc1ccc(OC)cc1c2=O (centres undefined) | 3724
O=C(OCc1ccccc1)N1CCC2CC1c1cc(N3CCN(S(=O)(=O)c4cccc(C(F)(F)F)c4)CC3)ccc12 (centres undefined) | 3040
Cc1cc(C)cc(-n2ncc3c2CCCC3NC(=O)c2ccccc2)c1 (centres undefined) | 2854
CCCCN1C(=O)C(CC(=O)NCCN2CCOCC2)CC(C(=O)N2CCOCC2)=C1C (centres undefined) | 3666
CCc1nc2c(OCc3c(C)noc3C)cccn2c1N(C)C(=O)c1ccccc1F | 4470
CC(C)CCNC(=O)c1[nH]c(C(F)(F)F)nc1-c1ccccc1 | 5980
C[C@@H]1CN([C@H](C)CO)C(=O)c2c(c3ccccc3n2C)-c2ccccc2CO[C@H]1CN(C)Cc1ccc(Oc2ccccc2)cc1 | 2876
CCOC(=O)[C@]12CCC=C1N(CCC1=CCCCC1)C(=O)[C@H](CC(=O)N1CCN(C(=O)c3ccco3)CC1)C2 | 4170
NC(Cc1ccc(Cl)cc1)c1csc(NC(=O)Nc2ccccc2)n1 (centres undefined) | 3226
CN(C)C1CN(Cc2cn(Cc3ccc(Cl)cc3)nn2)S(=O)(=O)C1 (centres undefined) | 4161
c1ccc(N=C2SCCCS2)cc1 | 3648
Cc1noc(C)c1S(=O)(=O)Nc1ccc2c(c1)C(=O)N([C@@H](C)CO)C[C@H](C)[C@@H](CN(C)Cc1ccc(C(F)(F)F)cc1)OCCCC[C@H](C)O2 | 3670
CC1(c2nc3ccccc3[nH]2)CCC(=O)N1C1CC1 (centres undefined) | 5623
O=C(CC1CC2CCC1C2)N1CCN(S(=O)(=O)c2ccc(F)cc2)CC1 (centres undefined) | 3313
Cc1ccc(-c2nc(SC(C)C(=O)NC3CC3)n[nH]2)cc1 (centres undefined) | 2884
Cc1ccc(S(=O)(=O)NN=Cc2c(O)ccc3ccccc23)cc1 | 3877
Cc1ccc(S(=O)(=O)N2[C@@H](c3cccc(Cl)c3)C(C(=O)OC(C)(C)C)=CC[C@H]2c2cccc(Cl)c2)cc1 | 5991

2 entries from above, reformatted.
O=C(OCc1ccccc1)N1CCC2CC1c1cc(N3CCN(S(=O)(=O)c4cccc(C(F)(F)F)c4)CC3)ccc12 (centres undefined)
  Bead autofluor = 3040

Cc1cc(C)cc(-n2ncc3c2CCCC3NC(=O)c2ccccc2)c1 (centres undefined)
  Bead autofluor = 2854

(cont.)
Compound | Bead autofluor
Cc1cc(Br)cn2c(Cc3ccccc3C(F)(F)F)c(-c3ccc(Cl)cc3)nc12 | 5853
CC(C)NC(=O)N(C)C[C@H]1OCCCC[C@@H](C)Oc2ccc(NC(=O)C3CCCCC3)cc2C(=O)N([C@H](C)CO)C[C@@H]1C | 2927
COc1ccc(Cc2c(-c3ccc(C)cc3)nc3ccc(Cl)cn23)c(C)c1 | 8116
O=C(N1CCOCC1)C12OC3CC(CC(C3)O1)O2 | 6256
COc1cccc(CNC(=O)c2ccc(F)c(S(=O)(=O)N3CCCCC3)c2)c1 | 3021
CCOC(=O)[C@]12CCCC=C1N(Cc1cccc3ccccc13)C(=O)[C@H](CC(=O)N1CCOCC1)C2 | 4144
COc1ncnc2c1ncn2CCCNCc1ccc(C)o1 | 3411
CCCCC[C@H](C)N1C[C@@H](COCc2ccccc2)Oc2cc(N3CC[C@@H](N(C)C)C3)ccc2S1(=O)=O | 5703
O=C(CC[C@H]1O[C@@H](n2ccc(=O)[nH]c2=O)[C@H](O)[C@@H]1O)N[C@H](Cc1ccccc1)C(=O)NCC1CCCCC1 | 6760
O=C1c2ccccc2[C@@H]2Cc3csc[n+]3[C@H]12 | 5411
OC[C@H]1O[C@@H](c2nc(-c3ccccc3Br)no2)[C@H](O)[C@@H]1O | 2832
CSc1ccc(CN2CCC(C)(Oc3cccc(F)c3)C2)cc1 (centres undefined) | 3484
COc1cc(CNC(=O)Nc2nc(C(N)c3ccccc3)cs2)cc(OC)c1OC (centres undefined) | 4183
CC1CCCCC1NC(=O)C1CCC(CNS(=O)(=O)c2ccc3c(c2)C(C)(C)C(=O)N3C)CC1 (centres undefined) | 5417
COc1ccc(S(=O)(=O)NC(=O)C2(C)CCN2C(=O)COc2ccc(Cl)cc2)cc1OC (centres undefined) | 2912
O=C(Nc1ccccc1)c1cc(C2CCCCN2S(=O)(=O)Cc2cccc(C(F)(F)F)c2)on1 (centres undefined) | 3780
CC1(C)CC(=O)C=C(c2ccc(-c3cccc(C(N)=O)c3)cc2)C1=O | 3543
O=[N+]([O-])c1cccc(C2Nc3ccccc3CO2)c1 (centres undefined) | 3644
COc1ccccc1CNC(=O)C1(C)CCN1Cc1ccc2ccccc2c1 (centres undefined) | 3618
CCC(C)N(C(=O)COC(=O)c1ccc(N)c([N+](=O)[O-])c1)C1CCS(=O)(=O)C1 (centres undefined) | 3483
Cc1cnc(NC(=O)C2(C)CCN2C(=O)C(C)C)s1 (centres undefined) | 2966
COC(=O)Cc1ccc(OC2(C)CCN(Cc3csc4ccccc34)C2)cc1 (centres undefined) | 3717
CCc1ccccc1Oc1nc(NCCOC)nc2cc(-c3ccccc3)sc12 | 3465
Cc1ccc(-c2cnc(C(O)c3ccc(Cl)c(Cl)c3)[nH]2)cc1 (centres undefined) | 3556
COCCNC(=O)C1CCCN(C(=O)c2ccc(F)c(C)c2)CC1 (centres undefined) | 3645
C[C@H]1CN([C@@H](C)CO)C(=O)CCCn2nncc2CO[C@H]1CN(C)C(=O)Nc1ccc(N2CCCCC2)cc1 | 3155
C[C@H](CO)N1C[C@H](C)[C@@H](CN(C)C(=O)c2ccc(N3CCN(C)CC3)cc2)OCc2cnnn2CCCC1=O | 4239
O=C(NC(c1ccc(-c2ccccc2)cc1)c1cnccn1)C1CCN(CCN2C(=O)c3ccccc3C2=O)CC1 (centres undefined) | 3924
C[C@@H]1Cn2cnc(C(=O)NCc3ccc(CNC(=O)OC(C)(C)C)cc3)c2C(=O)N1 | 3671
C[C@@H]1COc2cc(N(C)CCO)ccc2S(=O)(=O)N1 | 4777
CCOCc1nc(N)nc(N)c1-c1cccc(Cl)c1 | 3898
C[C@H](NC(=O)[C@@H]1CCCN1C(=O)[C@@H]1CCCN1C(=O)c1cccs1)c1ccccc1 | 5891
COc1cc(-c2cc(NC=O)c3ncc(-c4cccc(C(=O)N(C)C)c4)n3c2)cc(OC)c1OC | 3970
CCN(CC)S(=O)(=O)c1ccc(N2CCOCC2)c(NC(=O)c2cc3ccccc3o2)c1 | 4075
CCc1ccc(/C=C2\SC(=S)N(CCCC(=O)N3CCN(C)CC3)C2=O)cc1 | 3664
COc1ccc(CN(C)C[C@@H]2OCc3cnnn3CCCC(=O)N([C@H](C)CO)C[C@H]2C)cc1 | 3791
CCN(CC)C(=O)Cn1cc(C(=O)C(=O)Nc2ccc3c(c2)OCO3)c2ccccc21 | 3921
O=[N+]([O-])c1ccc(NCCCc2ccccc2)cc1 | 3722
CN(Cc1ccc(Cl)cc1)C(CCc1ccccc1)C(=O)NC1CCCCC1 (centres undefined) | 6067
Clc1ccc(-c2nc3c4ccccc4ccn3c2Cc2ccsc2)cc1 | 7940
COc1cc(C(=O)NCC(c2cccs2)N2CCOCC2)ccc1OCc1ccc(Cl)cc1 (centres undefined) | 3466
CC(=O)N1CCc2cc(NC(=O)C3(C)CCN3Cc3ccc(C(C)C)cc3)ccc21 (centres undefined) | 3705
COc1cccc(-c2cnc3c(NC=O)cc(-c4ccc(OC)cc4OC)cn23)c1 | 3053
CN(C)CCNC(=O)c1cccc(-c2cc(NC=O)c3ncc(-c4cccc(C(F)(F)F)c4)n3c2)c1 | 4279
Cc1cc(C)c(CN2CCN(C(=O)CC[C@H]3O[C@@H](n4cnc5c(NC(=O)c6ccccc6)ncnc54)[C@H](O)[C@@H]3O)CC2)c(C)c1 | 5871
O=C(NCCOc1ccccc1)c1cccc(S(=O)(=O)N2CCN(Cc3ccccc3)CC2)c1 | 4122
Cc1ccc2nc(-c3ccc(CN4CCC(n5c(=O)[nH]c6ccccc65)CC4)cc3)c(-c3ccccc3)nc2c1 | 5762
COc1ccc(NC(=O)N(C)C[C@@H]2Oc3ncc(Br)cc3C(=O)N([C@@H](C)CO)C[C@@H]2C)cc1 | 3452
O=C1C=C(N2CCOCC2)c2cccc3cccc1c23 | 2919
CSc1ccccc1-c1cnc(NC(C)=O)cn1 | 3914
CCOc1ccccc1-n1nnnc1SCC(=O)N(C)C1CCS(=O)(=O)C1 (centres undefined) | 4088
Cc1nc(SCC(=O)NC2CCCC2)c2oc3ccccc3c2n1 | 3620
CCN(CC)C(=O)C1=C(C)N(Cc2ccc(C(C)(C)C)cc2)C(=O)C(CC(=O)NCc2cccc3ccccc23)C1 (centres undefined) | 3959
CC(C)N1CCC1(C)C(=O)Nc1cccc(C#N)c1 (centres undefined) | 4264
CCCNC(=O)C1(C)CCCN(Cc2ccc3c(c2)OCO3)C1 (centres undefined) | 3823
Cc1cc(C)c(S(=O)(=O)N2C[C@H]3CON(C)[C@H]3C[C@H]2c2ccc(N3CCCCC3)cc2)c(C)c1 | 34680*
O=NN(CCCl)C(=O)NCC1=C[N+](=O)CC=C1 | 6419
CC(C)(C)n1nnnc1C(c1cccs1)N1CCC2(CC1)C(=O)NCN2c1ccccc1 (centres undefined) | 5409
O=C1NCN(c2ccccc2)C12CCN(C(c1ccccc1OC(F)(F)F)c1nnnn1C1CCCC1)CC2 (centres undefined) | 6101
O=C1CC(=O)Nc2ccccc2N1 | 4049

Part of the list above, field by field:
molecule: Cc1cc(C)cc(-n2ncc3c2CCCC3NC(=O)c2ccccc2)c1 (centres undefined)
  Bead autofluor: 2854

molecule: CCCCN1C(=O)C(CC(=O)NCCN2CCOCC2)CC(C(=O)N2CCOCC2)=C1C (centres undefined)
  Bead autofluor: 3666

molecule: CCc1nc2c(OCc3c(C)noc3C)cccn2c1N(C)C(=O)c1ccccc1F
  Bead autofluor: 4470

molecule: CC(C)CCNC(=O)c1[nH]c(C(F)(F)F)nc1-c1ccccc1
  Bead autofluor: 5980

(further entries)
Compound | Bead autofluor
C[C@@H]1CCCCO[C@@H](CN(C)C(=O)Nc2ccccc2)[C@@H](C)CN([C@H](C)CO)C(=O)c2cc(N(C)C)ccc2O1 | 3686
CCOC(=O)C1=CCN(S(=O)(=O)c2cccc(Cl)c2)C1c1ccccc1 (centres undefined) | 4289
COc1ccc(CNC(=O)COc2cc3c(c4oc(=O)cc(C)c24)CCC(C)(C)O3)c(OC)c1 | 5274
COc1cc(F)ccc1-c1csc(C(NC(C)=O)c2ccccc2)n1 (centres undefined) | 3312
CCCCn1nnnc1C1(C)CCC(=O)N1CC(F)(F)F (centres undefined) | 5617
CCNC(=O)C1CCCN(C(=O)c2c(-c3ccccc3)noc2C)CC1 (centres undefined) | 3909
CCOC(=O)[C@]12CCCC=C1N(Cc1cccc3ccccc13)C(=O)[C@H](CC(=O)NCc1cccc(C(F)(F)F)c1)C2 | 5678
CCCC(=O)N1CCC1(C)C(=O)Nc1ccc2nccnc2c1 (centres undefined) | 2799
